Screening data: PubChem BioAssay, PCMD
Calb biofilm kill = clotrimazole potentiators killing C. albicans biofilm, primary screen, 4-compound mixtures | 120,000 tested, 0.02% active | inhibition, % at 7.6 µM | C. albicans biofilm persisters + clotrimazole, fluorescence viability; primary screen in compound mixtures of four per well;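 active means inhibition above 30.3% in the primary screen of four-compound pools, then above 30% when the compound was retested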;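 further: compounds exposed to preformed 24 h biofilms for 48 h; the number belongs to the whole pool; some results filed as inactive read as strong as hits; inactives centre near 12; 0% = biofilm with clotrimazole alone and 100% = kill control; retested singly at about 60 µM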
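Test system: C. albicans biofilms. Buffer or medium: RPMI/MOPS medium, pH 7.0. Timing: 48 h compound exposure at 37 °C. Technique: Alamar Blue fluorescence. Evaluation: percent inhibition of biofilm viability.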
An asterisk follows results filed as active. This is a subset; rates above refer to the full screens.

mol	Calb biofilm kill
O=C(c1cc(COc2ccc(F)cc2Cl)on1)N1CCCC(c2ccccc2)C1 (stereo not given)	21
CCCOP(=O)(OCCC)c1nc(-c2ccccc2)oc1NCc1ccccc1	12
CC1(C)Cc2c(sc3c2c(N)nc(=S)n3Cc2ccc(Br)cc2)CO1	14
CCOc1cc(/C=C\[N+](=O)[O-])ccc1OCC(=O)N1CCOCC1	4
C/C(CC(=O)Nc1ccc(C)c(Cl)c1)=N\NC(=O)Cc1ccccc1	10
O=C(Nc1ccccc1C(=O)N1CCNCC1)c1ccco1	16
COc1ccc(CN2CCN(C(=O)c3cccc(OC)c3OC)CC2)cc1OC	10
COc1ccc(COC(=O)N/N=C(\C)CC(=O)Nc2ccc(Cl)cn2)cc1	12
Cc1sc(NC(=O)CCCC(=O)O)c(C(N)=O)c1-c1ccccc1	17
NC(=O)c1c(Nc2nc3c(F)cccc3s2)sc2c1CCCC2	8
CC(C)NC(=O)Cn1cc(C(=O)COc2ccccc2)c2ccccc21	22
Cc1cccc(Nc2c([N+](=O)[O-])c(=O)oc3ccccc23)c1	5
CC1CN(C(=O)c2ccc(COc3ccc(C(C)C)cc3)o2)CC(C)O1 (stereo not given)	18
CC(C)(Oc1ccc(Cl)cc1)C(=O)NCCN1C(=O)S/C(=C/c2cccnc2)C1=O	14
CC1CC(C)CN(C(=O)c2cccc(S(=O)(=O)Nc3cc(C(F)(F)F)ccc3Cl)c2)C1 (stereo not given)	3
N#C/C(=C\Nc1ccccc1SC(F)(F)F)c1nc(-c2ccc(Cl)cc2)cs1	20
O=C(NC(=S)NCC1CCCO1)c1ccccc1 (stereo not given)	7
Cc1ccc(CNS(=O)(=O)c2ccccc2[N+](=O)[O-])cc1	9
Cc1ccc(C(C[N+](=O)[O-])c2c(-c3ccccc3O)[nH][nH]c2=O)cc1 (stereo not given)	15
COc1ccc(-n2c(C)cc(C(=O)CN3C(=O)NC4(CCCc5sccc54)C3=O)c2C)cc1 (stereo not given)	9
COc1ccccc1N(CC(O)COc1ccccc1C)S(=O)(=O)c1ccccc1 (stereo not given)	11
CCN1C(=O)C(CC(=O)Nc2ccc(OC)cc2)N(CCc2ccccc2)C1=S (stereo not given)	10
NC(=O)c1ncc(C(F)(F)F)cc1Cl	4
O=C(NC(Cc1c[nH]c2ccccc12)C(=O)NCCCN1CCOCC1)c1cccs1 (stereo not given)	7
O=C(CC1C(=O)NCCN1Cc1ccc(-c2ccccc2)cc1)NCC1CC1 (stereo not given)	-5
CCc1cccc(OCCN2CCCC2)c1	20
Cc1cc(C)nc(SCc2ccc(F)cc2)n1	9
CC(C)OCCCNC(=S)Nc1ccc(S(N)(=O)=O)cc1	8
CC1=NN(C(=O)CCCc2ccccc2)C(O)(C(F)(F)F)C1 (stereo not given)	20
CN(CCC1CCCCO1)C(=O)CCc1nnc(C2CCCCC2)o1 (stereo not given)	14
Cn1cc(C(=O)c2ccc(Cl)cc2Cl)cc1C=O	-28
CCN1CCN(Cc2ccc(NC(=O)c3ccc(C)c(NC(=O)c4csc(-c5ccncc5)n4)c3)cc2C(F)(F)F)CC1	13
O=C(CN(C(=O)c1csnn1)c1ccc(F)cc1)NCc1ccc(F)cc1	27
O=C(Nc1nn[nH]n1)c1ccc(S(=O)(=O)N2CCCCC2)cc1	11
O=C(N/N=C/C(Br)=C\c1ccccc1)c1ccco1	33
NC(=O)c1cccc(CC(=O)c2ccccc2)c1	19
Cc1[nH]c2ccccc2c1C(=O)CSc1ccccc1	1
Brc1ccc2c(c1)OCCOCCOCCOCCOCCOCCO2	18
CCC(CO)N=C1CC(C)(C)CC(=O)/C1=C(/O)CCCN1C(=O)c2ccccc2C1=O (stereo not given)	5
COc1ccccc1-n1c(SCC(=O)Nc2cccc(S(N)(=O)=O)c2)nc2ccccc2c1=O	5
CCc1ccc(-c2c(C)sc(NC(=O)C3CCC3)c2C#N)cc1	3
COc1cccc2c(O)cc(=O)n(C)c12	16
O=C(Cc1ccccc1)NC1CCS(=O)(=O)C1 (stereo not given)	14
Cc1ccc(NC(=O)Cc2nnc(N)s2)cc1	20
COc1ccc(NC(=O)CCN2C(=O)C3C4C=CC(C4)C3C2=O)cc1 (stereo not given)	17
COc1cccc(C(=O)N/N=C/C(Br)=C/c2ccccc2)c1	11
O=C(O)CCC(=O)NNc1nc2ccccc2nc1-c1ccccc1	3
CCCC[n+]1ccn(-c2nc3ccccc3nc2[N-]S(=O)(=O)c2ccc(Br)cc2)c1	6
CCN(Cc1cc2ccccc2[nH]c1=O)C(=O)c1cccc([N+](=O)[O-])c1	28
CCSc1nc2ccccc2n1Cc1ccccc1F	10
COCC(C)n1c(SCc2nc3ccccc3c(=O)[nH]2)nc2ccccc2c1=O (stereo not given)	27
CCN(CC)S(=O)(=O)c1ccc(N2CCCC2)c(NS(=O)(=O)c2ccccc2)c1	3
COc1ccc(NC(=O)COC(=O)CNS(=O)(=O)c2ccccc2)cc1OC	1
S=C(NCc1ccco1)Nc1ccccn1	9
Cc1ccnc(NC(=O)COc2ccc3oc4c(c3c2)CCCC4)c1	15
COC(=O)c1nn(-c2ccccc2)c2nnc(Cc3ccc(C)cc3)c(=O)n12	6
Oc1oc(C=Nc2ccc(F)cc2F)c2ccccc12	21
CCCn1c(SCC(=O)c2c[nH]c3ccccc23)nnc1-c1ccncc1	10
O=C(O)c1ccc(N2C(=O)c3[nH]nc(-c4ccccc4)c3C2c2ccccc2)cc1 (stereo not given)	5
O=C(/C=C/c1cn(-c2ccccc2)nc1-c1cccnc1)NCCN1CCOCC1	24

Some of the entries above, set out differently:
> COc1ccc(NC(=O)COC(=O)CNS(=O)(=O)c2ccccc2)cc1OC
- Calb biofilm kill = 1
> COc1ccc(NC(=O)CCN2C(=O)C3C4C=CC(C4)C3C2=O)cc1 (stereo not given)
- Calb biofilm kill = 17
> Cc1[nH]c2ccccc2c1C(=O)CSc1ccccc1
- Calb biofilm kill = 1

Later entries.
mol	Calb biofilm kill
O=C(Nc1nnc(-c2ccccc2)s1)c1cccc(S(=O)(=O)N2CCOCC2)c1	15
CC12CCC(C(=O)NCCCN3CCOCC3)(C(Br)C1=O)C2(C)C (stereo not given)	25
Cc1nc(C)c(-c2ccn(S(=O)(=O)c3ccc(Cl)cc3)n2)o1	1
Cc1occc1C(=O)NNC(=O)c1ccccc1F	9
Fc1ccc(NC(=S)Nc2cccnc2)cc1	17
N#C/C(=C\c1ccc(Cl)s1)C(=O)N1CCN(c2ccccc2)CC1	8
CCOc1cc(N2CCOCC2)c(OCC)cc1NC(=O)c1ccc(OC(C)C)cc1	8
C/C(N)=C(/C#N)C(=O)COC(=O)C(c1ccccc1)c1ccccc1	17
CCc1ccc(S(=O)(=O)Nc2ccc(O)c3c(=O)cc(-c4ccccc4Cl)oc23)cc1	7
O=c1oc2ccccc2cc1-c1csc(Nc2ccc(O)cc2)n1	8
N/C(=N\OC(=O)c1ccc2c(c1)OCO2)c1cccc([N+](=O)[O-])c1	5
Cc1nc(-c2cc(-c3nc(-c4cc(C(F)(F)F)cc(C(F)(F)F)c4)no3)no2)cs1	14
CCOC(=O)c1sc(=S)n(-c2ccc(Cl)cc2)c1C	8
C=CCn1c(SCC(=O)NCCO)nc2sc(C)c(C)c2c1=O	37
O=C(NC(=O)c1ccc(Cl)cc1)Nc1ccc(-c2cnco2)cc1	16
NNC(=O)c1cncn1-c1ccc(F)cc1	13
CC1=C(c2ccccc2)[N+](=O)C2(CCCCC2)N1[O-]	-1
COc1cccc(-n2nnc3c(=O)n(CC(=O)Nc4cc(C)on4)cnc32)c1	7
Cc1ccc(/C=C/C(=O)Nc2ccc(N(C)C)cc2)o1	8
CCn1c(-c2cc(C3CC3)nc3ccccc23)n[nH]c1=S	-10

Later entries.
mol	Calb biofilm kill
CCCOc1ccc(OCCn2nc(C(=O)O)c3ccccc3c2=O)cc1	17
CC(C)CN(CC(C)C)C(=S)Nc1ccc(Cl)cc1	4
S=c1[nH]c(-c2ccc(Cl)cc2)cs1	15
CCOc1cc2c(cc1OCC)C(c1ccccc1OC)OC(=O)C2 (stereo not given)	18
CCOC(=O)C1=C(C)OC(N)=C(C#N)C1c1cccc(C)c1 (stereo not given)	27
COc1ccc(C(=O)C2CCCN(Cc3ccc(Sc4nncn4C)o3)C2)cc1F (stereo not given)	12
O=C(Nc1cccc(S(=O)(=O)NC2=NCCC2)c1)c1cc(-c2ccco2)nc2ccccc12	27
CCc1cc(=O)oc2cc(C)cc(OCC(C)=O)c12	3
Cn1c(=O)n(Cc2ccc(Br)cc2)c2ccccc21	13
COc1cc(OC)c(OC)cc1/C=C1/C(=O)N=C(N)N1C	-5
CSc1ccc(CN(C)CC(=O)Nc2c(F)cccc2F)cc1	15
COC(=O)c1cccc(NC(=O)c2ccccc2)c1	20
CCc1c(C)nc(N)nc1Cl	19
CC(=O)c1cc(CN2CCN(C3CCCCC3)C(CCO)C2)cs1 (stereo not given)	35
C/C(=N\NC(=S)NCc1ccccc1)c1ccc2ccccc2c1OC(F)F	9
Nn1c(Cc2cccc3ccccc23)nnc1SCc1ccccc1Cl	8
Cc1ccc(S(=O)(=O)N(CC(=O)O)Cc2ccco2)cc1	5
COc1ccc([C@H]2[C@H](C(=O)C(C)(C)C)N3N=Cc4ccccc4C3C23C(=O)OC(C)(C)OC3=O)cc1 (stereo not given in full)	25
CCOC(=O)c1sc2nc(CSc3ccccc3Cl)[nH]c(=O)c2c1C	12
Nc1ccc(Oc2ccc3c(c2)C(=O)N(CC2CCCO2)C3=O)cc1 (stereo not given)	15
Cc1ccc(C)c(OC2=NS(=O)(=O)c3ccccc32)c1	21
O=C(NCc1nc2ccccc2[nH]1)C1=C[C@@H](C2CCCCC2)C[C@@H](OCc2ccc(CO)cc2)O1	5
CCOC(=O)c1c(CCl)nc2ccccc2c1C	17
O=C(NCCc1ccccc1)c1nc(-c2cccs2)no1	11
S=C1NCN(Cc2ccco2)CN1	20
O=C(CS(=O)(=O)c1ccccc1)Nc1nc(-c2ccc(F)cc2)cs1	6
O=C(COC(=O)C1CC2C=CC1C2)Nc1ccccc1 (stereo not given)	18
C/C(=N\N1CCN(c2ccc(Cl)cc2)CC1)c1ccco1	7
O=S(=O)(c1ccc(Cl)cc1)n1cccn1	10
CNC(=O)CC1C(=O)N(C)C(=S)N1NC(=O)c1ccccc1 (stereo not given)	11
COCCCNC(=O)CN(c1cc(Cl)ccc1OC)S(C)(=O)=O	15
Cc1cc(OCCCn2cnc3ccccc3c2=O)ccc1[N+](=O)[O-]	18
CN(C)c1ccc(-c2nnn(CC(=O)NCc3ccc4c(c3)OCO4)n2)cc1	10
COc1ccccc1-n1cnc2cc(C(=O)NC3CCCC3)ccc21	18
COc1ccccc1NC(=O)CC(=O)CSc1nnc(-c2ccc(C)cc2)n1-c1ccccc1	11
CC(C)(C)C(=O)N(Cc1nc2ccccc2c(=O)[nH]1)Cc1cccs1	-12
COc1ccc(NC(=O)C(c2cc3c(cc2[N+](=O)[O-])OCO3)N(C)C)cc1 (stereo not given)	16
COc1ccc(NC(=O)CCCN(C)S(=O)(=O)c2ccc(C)cc2)cc1	9
O=C(Nc1ccc2c(c1)OCO2)Nc1ccccn1	20
CCOCCn1c(=NC(=O)c2cc(Cl)sc2Cl)sc2cc(S(N)(=O)=O)ccc21	12
COCCCNc1oc(-c2ccccc2Cl)nc1C#N	-4
COc1ccc2nc(Cl)cc(Cl)c2c1	21
CCN(CC(=O)NC1CCS(=O)(=O)C1)S(=O)(=O)c1ccccc1 (stereo not given)	17
O=C(CCn1c(=O)sc2ccccc21)NCCCn1ccnc1	14
Cc1cccc(-n2ncc3c(N(C)Cc4ccccc4)ncnc32)c1	24
Cc1cc(C)c[n+](C(C)C(=O)c2ccc(-c3ccccc3)cc2)c1 (stereo not given)	19
Cc1ccc(N2C(=O)C3CC(c4ccccc4)=C4C5C=CC(C6C(=O)N(c7ccc(C)cc7)C(=O)C56)C4C3C2=O)cc1 (stereo not given)	13
CSc1ccc(CNC(=O)c2c(C)noc2C)s1	11
CCCCN(C)c1ccc([N+](=O)[O-])cc1	2
Cc1ccc2nc(N(CCCN(C)C)C(=O)c3ccc(S(=O)(=O)N(C)C)cc3)sc2c1	12
O=C(N/N=C/c1c(O)n(Cc2ccco2)c(=O)[nH]c1=O)c1ccccc1	8
CCCC(O)(CCC)C(=O)NN(C(=O)OC)c1ccccc1	13
CCOC(=O)C1(CCc2ccccc2)CCN(Cc2ccn[nH]2)CC1	11
CCOC(=O)C(=CNc1ccccc1N1CCOCC1)C(=O)OCC	22
Fc1cccc(CSc2nc3ccncc3[nH]2)c1	12

Structures above that have a nitro group on carbon, in the order listed:
mol	Calb biofilm kill
CCOc1cc(/C=C\[N+](=O)[O-])ccc1OCC(=O)N1CCOCC1	4
Cc1cccc(Nc2c([N+](=O)[O-])c(=O)oc3ccccc23)c1	5
Cc1ccc(CNS(=O)(=O)c2ccccc2[N+](=O)[O-])cc1	9
Cc1ccc(C(C[N+](=O)[O-])c2c(-c3ccccc3O)[nH][nH]c2=O)cc1 (stereo not given)	15
CCN(Cc1cc2ccccc2[nH]c1=O)C(=O)c1cccc([N+](=O)[O-])c1	28
N/C(=N\OC(=O)c1ccc2c(c1)OCO2)c1cccc([N+](=O)[O-])c1	5
Cc1cc(OCCCn2cnc3ccccc3c2=O)ccc1[N+](=O)[O-]	18
COc1ccc(NC(=O)C(c2cc3c(cc2[N+](=O)[O-])OCO3)N(C)C)cc1 (stereo not given)	16
CCCCN(C)c1ccc([N+](=O)[O-])cc1	2
